Source: PubChem BioAssay
Bfl-1 A1 inh – inhibitors of the anti-apoptotic protein A1, read as caspase activation. MEF A1-2A-BIM cells, Caspase-Glo 3/7 luminescence, 3 h; percent of clofoctol response, vehicle zero. caspase activation, % (test concentration not listed). 330,000 tested, 0.066% active;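 active = over half of replicate activation scores above 10%, or exactly half above 10 with the replicate mean above 10; inconclusive = replicate mean below 10 yet half the replicates above 10; inactive = over half of replicates below 10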;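 note: wells of about 30 µL received 50 nL stock; many hits fall short of the cut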
Beta cell apopt – beta cell apoptosis inhibition. protection from apoptosis, % (no concentration beside the values). INS-1E cytokine-induced death, ATP luminescence, 48 h; percent of positive-control rescue, neutral wells zero. AID 435005. 300,000 tested, 0.8% active;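 active = all replicates at 75% or more, or half of them and the mean; inconclusive = half reach 75% but not the mean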;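 note: 0% = cytokine-treated negative control wells and 100% = positive control rescue; higher means more ATP so stronger rescue from cytokine killing; wells of about 40 µL received 100 nL stock; the first replicate is given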
RanGTP-Imp inh – disruptors of Ran-importin-beta complex formation – biochemical, FRET, CFP-Ran, YFP-importin-beta, homogeneous, primary screen | inhibition, % (test concentration not listed) | cell-free CFP-Ran/YFP-importin-beta FRET ratio | 300,000 tested, 1.1% active | AID 2216;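 active = most replicates above 15%; inconclusive = exactly half above 15%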;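 note: 0% = DMSO wells and 100% = Ran loaded with GDP instead of GTP; wells of about 40 µL received 100 nL stock; the first replicate is given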
AF4-AF9 inh – MLL-AF4/AF9 protein interaction inhibition; P42568; 350,000 tested, 0.47% active; inhibition, % at 10 µM; AlphaScreen, biotin-AF4 peptide binding to FLAG-AF9;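 active = every replicate reaching a set inhibition limit, whatever the replicate mean, cut at about 25% in these data; inconclusive = mean inhibition reaches that limit but some replicates miss it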;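 note: 0% = plate neutral control median and 100% = total signal loss; the record names both 10 and 1 µM as test concentration; the first replicate is given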
Target sequence (P42568 whole entry, looked up): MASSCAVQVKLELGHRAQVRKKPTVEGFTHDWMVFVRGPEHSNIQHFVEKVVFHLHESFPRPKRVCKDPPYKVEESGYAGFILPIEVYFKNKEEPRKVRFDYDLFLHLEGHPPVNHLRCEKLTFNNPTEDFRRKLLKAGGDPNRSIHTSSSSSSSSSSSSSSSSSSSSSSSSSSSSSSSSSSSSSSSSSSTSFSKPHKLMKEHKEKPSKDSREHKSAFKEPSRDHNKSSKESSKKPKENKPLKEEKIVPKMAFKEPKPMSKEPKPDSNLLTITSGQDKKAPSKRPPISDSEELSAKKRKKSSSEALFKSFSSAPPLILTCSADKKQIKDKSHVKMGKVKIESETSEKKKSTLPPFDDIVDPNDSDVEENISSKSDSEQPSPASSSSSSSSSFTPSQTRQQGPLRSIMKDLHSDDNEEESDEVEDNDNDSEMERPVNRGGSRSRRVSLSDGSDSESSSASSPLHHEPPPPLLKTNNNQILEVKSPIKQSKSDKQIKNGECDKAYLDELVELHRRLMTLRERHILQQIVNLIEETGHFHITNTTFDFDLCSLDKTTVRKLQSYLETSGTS
rRNA inh HTS – inhibitors of bacterial rRNA selective over humanized ribosomes | E. coli WT GFP vs humanized-ribosome RFP mutants, fluorescence, 24 h; stronger effect = lower value; DMSO median 0, no signal -100 | GFP signal change (wild-type ribosome), % (concentration not given with the values) | 350,000 tested, 1.6% active | AID 720706;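 active = significant combined selectivity score with lowered wild-type GFP, culture density cut under 30%, mutant RFP and density less affected; inactive = any of these conditions unmet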; note: one replicate is shown; some compounds called inactive have numbers as strong as hits
Calb FLC – C. albicans growth modulation with fluconazole; growth inhibition, % (no concentration beside the values); AID 1979; C. albicans CaCi-2 (fluconazole-resistant clinical isolate) + fluconazole, Alamar Blue growth, 48 h; 300,000 tested, 0.57% active;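 active = most replicates above 75%; inconclusive = exactly half above 75%; inactive = most below 75%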;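 note: all wells also contain fluconazole at 8 µg/ml as a sub-toxic cotreatment; 0% = median of DMSO wells and 100% = median of geldanamycin control wells; wells of about 8 µL received 7.5 nL stock; the first replicate is given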
Vif TR-FRET – inhibitors of Vif binding to APOBEC3G peptide, primary screen, biochemical, TR-FRET, GST-Vif 1-94, biotin-A3G peptide, dose response retest (AID 1117319); TR-FRET GST-Vif / biotin-A3G peptide binding; higher % means a stronger effect; test concentration not given here; strong numbers were not always called active; one-dose inhibition, %; IC50 in µM for titrated hits; 260,000 tested, 0.57% active;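 active = above the screen mean plus three standard deviations and confirmed in dose response; inconclusive = results disagree or hit not tested in dose response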;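 note: Vif residues 1-94 fused to GST binding biotinylated APOBEC3G peptide 110-148; 0% = full assay without inhibitor and 100% = GST in place of GST-Vif; retest series ran down from 100 µM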
T cruzi repl – T. cruzi replication inhibition; inhibition, % (no concentration beside the values); T. cruzi beta-gal in NIH3T3, luminescence, 90 h; AID 1885; 300,000 tested, 1.4% active;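 active = mean inhibition across valid replicates above about 55%, limit read from the data; inconclusive = mean below that limit but half or more replicates reach it; inactive = mean below it, under half of replicates reach it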;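 note: signal also drops with host cell toxicity which is not excluded here; 0% = plate median of DMSO wells and 100% = zero luminescence signal; higher percent means less beta-gal luminescence so fewer parasites; stock transfer was 50 nL into about 50 µL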
rRNA inh HTS OD600 – further read-out of rRNA inh HTS, marked with its call; OD600 change, %; measured here: OD600 growth;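 optical density of the mix in the first replicate; 0 = DMSO median and -100 = no signal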
rRNA inh HTS RFP – second read-out of rRNA inh HTS, no call of its own (marks repeat the call); RFP signal change, %; measured here: RFP humanized mutant strains;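 first replicate; 0 = DMSO median and -100 = no signal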
* = called active by the depositor; ? = inconclusive; . = not tested or not shown; & = joins results of further samples.

SMILES	Bfl-1 A1 inh	Beta cell apopt	RanGTP-Imp inh	AF4-AF9 inh	rRNA inh HTS	rRNA inh HTS OD600	rRNA inh HTS RFP	Calb FLC	Vif TR-FRET	T cruzi repl
Cc1ccc(OCC(=O)NCCO)cc1C	-0.8	-3.5	3.7	5.1	11.1	9.5	-2.9	-1.0	?	-12.2
COc1ccc(C(C(=O)NCC2CCCO2)N(C(=O)CNC(=O)c2ccco2)c2ccccc2)cc1OC (stereo unspecified)	0.3	-2.2	-5.3	1.0	10.3	6.2	1.9	-2.0	10.6%	11.3
O=C(Oc1cccc(-n2cnnn2)c1)c1ccco1	0.2	5.4	1.8	.	.	.	.	-1.1	3.1%	-5.1
Cc1ccc(S(=O)(=O)Oc2ccccc2N2C(=O)C3C4CCC(C4)C3C2=O)cc1 (stereo unspecified)	0.0	-7.4	0.3	-2.2	-10.7	-11.2	2.0	10.1	.	-13.8
CCC(CC)C(=O)OCC(=O)Nc1cccc([N+](=O)[O-])c1	-0.1	-1.1	2.8	2.0	1.7	2.6	-0.3	22.3	2.8%	-3.5
Cc1ccc2c(c1)N(CC(=O)N1CCCCC1)C(=O)C(C)O2 (stereo unspecified)	0.0	-4.9	-0.5	-0.4	4.6	7.8	-4.2	0.4	.	-5.5
C=C1CCC[C@]2(C)C[C@H]3OC(=O)C(CNC(CC)CO)[C@H]3CC12 (stereo partly specified)	0.1	-34.8	1.6	1.6	12.2	7.2	3.7	-2.7	-6.4%	-54.5
COc1ccc(S(=O)(=O)N(C)C)cc1NC(=O)COC(=O)CC1CCCC1	-0.2	-4.4	-0.3	-0.4	-4.3	-8.4	1.1	-0.3	-2.9%	-7.5
CCC(C)(C)NC(=O)CN(Cc1ccccc1Cl)C(=O)CCC(=O)Nc1cc(C)ccn1	1.7	-9.7	1.9	1.8	-7.1	-3.2	-0.9	12.7	-0.5%	8.9
CC1=NN(c2ccccc2)C(=O)/C1=C\N(O)c1ccccc1	0.5	-0.1	0.8	9.2	-0.9	3.3	-2.4	-4.3	.	-14.2
O=C(NC1CC1)C1CCN(C2CCN(C(=O)Cc3ccc4c(c3)OCO4)CC2)CC1	2.2	-1.0	1.5	-0.7	4.6	-0.6	8.2	-16.2	30.9%	.
Cc1ccccc1CSCc1ccc(C(=O)NCCCN2CCOCC2)o1	1.0	-4.5	-0.9	4.4	10.8	9.6	0.6	-0.3	9.5%	5.3
CN(C(=O)Cn1nnc(-c2cccnc2)n1)C1CCCCC1	0.1	2.0	2.7	-4.2	-8.7	2.1	-2.5	37.8	8.3%	-17.3
Cc1cc(NC(=O)c2noc3c2CCc2ccccc2-3)n(-c2ccccc2)n1	0.2	7.6	6.9	-4.6	9.4	11.1	-0.9	-3.7	-1.3%	-2.0
COc1ccc(OCc2cc(C(=O)NCC3(C)COC3)no2)c(Cl)c1	0.6	-1.9	0.0	0.4	-12.3	-14.9	-1.7	4.8	.	-0.7
O=C(CS(=O)(=O)c1ccccc1Cl)N1CCOCC1	0.2	-5.7	-1.4	-0.7	6.4	7.1	-1.0	-0.7	-2.4%	1.1
C/C(=N/OC(=O)c1c(F)cccc1F)c1nccs1	-0.2	-14.7	-0.7	.	-1.9	5.9	-2.1	-1.2	-1.4%	7.7
CC(=O)c1ccc(NC(=O)C(C)Oc2ccc(N(C)S(=O)(=O)c3ccc(C)cc3)cc2)cc1 (stereo unspecified)	-0.6	-6.1	.	-5.7	-9.8	-12.9	-1.6	.	4.3%	.
Cc1ccc(NC(=O)COc2ccc(/C=N/NC(=O)CSCc3ccccc3)cc2)cc1	0.5	-16.8	-3.2	.	.	.	.	-14.1	34.4%&2.6%	-0.6
Cc1ccc(C2CC(C(F)F)n3ncc(C(=O)Nc4c(C)nn(Cc5c(F)cccc5Cl)c4C)c3N2)cc1 (stereo unspecified)	-0.6	-0.7	0.8	.	.	.	.	2.9	-3.4%	?
CC(OC(=O)c1cccs1)C(=O)NCc1ccccc1 (stereo unspecified)	0.4	-2.7	2.2	.	.	.	.	0.1	-1.8%	-5.1
Cc1ccc2[nH]c(=O)c3cc(C(=O)N(C)Cc4ccco4)sc3c2c1	-0.2	-5.6	2.8	13.2	1.0	3.1	6.8	-2.5	-1.7%	-2.1
CSc1ccccc1NC(=O)C1CC(c2ccccc2Cl)=NO1 (stereo unspecified)	0.7	-8.9	0.3	1.3	-12.6	-12.6	-0.2	9.5	.	16.7
COc1ccc(NC(=O)c2ccccc2Cl)c(NC(=O)c2ccco2)c1	.	.	2.5	3.2	-3.5	-0.1	-1.4	-1.7	0.1%	3.8
CCCCC1(CC(=O)OCC)C(=O)N(c2ccccc2)N(c2ccccc2)C1=O	0.5	-4.1	0.9	7.7	7.1	10.2	-7.3	-19.4	.	-4.8
O=C(CCn1cccc1)N1CCc2ccccc21	-0.3	-3.1	?	.	.	.	.	1.7	5.1%	-0.1
COc1ccc(NC(=O)c2cc(=O)c3ccccc3o2)cc1Cl	-0.3	7.0	-4.1	-0.5	2.1	2.4	0.4	-4.5	.	2.1
CC1CCN(S(=O)(=O)c2ccc(S(=O)(=O)NCc3ccco3)cc2)CC1	0.5	0.8	-3.8	.	.	.	.	7.1	4.3%	3.2
O=C(CSc1nc2ccccc2c(=O)n1-c1ccc(F)cc1F)c1c[nH]c2ccccc12	0.0	1.5	2.7	.	.	.	.	10.2	19.5%	8.3
CC12CCC(=O)N1C(C(=O)Nc1ccc(F)c(Cl)c1)CS2 (stereo unspecified)	-3.5	-4.5	1.5	0.3	2.5	-2.0	-1.8	-0.2	2.5%	-2.6
O=c1c(Cl)c(NCc2ccc(F)cc2Cl)cnn1C12CC3CC(CC(C3)C1)C2	-0.4	0.8	1.5	0.6	-3.4	-15.5	-4.6	32.3	?	47.8
Cc1ccc(NC(=O)C2CCC(C(C)(C)C)CC2)cc1S(=O)(=O)N1CCOCC1 (stereo unspecified)	1.4	6.9	.	-1.9	-3.6	-18.0	-4.5	.	-9.9%	.
COc1ccc(-c2oc3ccccc3c2C#Cc2cncn2C)cc1	0.4	5.5	.	0.6	11.2	10.0	-0.3	.	.	.
CC(C)NC(=O)/C(=C\c1cccc([N+](=O)[O-])c1)NC(=O)c1ccccc1	-0.2	-5.1	2.1	.	.	.	.	1.1	-1.7%	-8.5
Cc1cccc(C)c1OCc1nc2ccccc2[nH]1	0.2	2.3	-4.0	1.0	-23.9	-17.6	-13.6	6.7	-3.7%	-3.4
COc1cc(NC(=O)CCN2CCN(C)CC2)cc(OC)c1	0.8	1.9	0.8	-11.7	-2.3	3.1	-0.1	-4.3	1.3%	-3.8
CCC(C)OC(=O)C1C(c2ccccc2)C(C(=O)O)C1c1ccccc1 (stereo unspecified)	-0.4	-2.4	3.6	.	.	.	.	-5.6	29.0%	-0.5
CC(OC(=O)C1=COCCO1)C(=O)Nc1ccc(Cl)cn1 (stereo unspecified)	0.8	.	-0.8	-2.5	5.6	0.5	-1.1	-2.3	2.2%	-11.7
Cc1ccc(C(C)C)c(OCCN)c1	0.3	.	-6.3	5.1	4.7	0.1	-2.5	-3.5	6.1%	-25.3
COc1ccc(-c2oc3ccc(-c4cc(OC)c(OC)c(OC)c4)cc3c2C#Cc2ccccn2)cc1	-0.5	-0.5	.	3.6	2.7	1.1	-0.4	.	.	.
CC1OC(O[C@H]2CC[C@]3(C)C4C=C[C@]56OC[C@@]7(CC[C@@H](C)[C@H](C)C75)[C@H](O)C[C@@]6(C)[C@]4(C)CC[C@H]3C2(C)C)C(OC2OC(CO)C(O)C(O)C2OC2OCC(O)C(O)C2O)C(O)C1O (stereo partly specified)	.	.	0.5	.	.	.	.	14.3	14.7%	-1.9
Cc1ccc2c(c1)C(=O)C(=O)N2c1ccc(Cl)cc1	1.4	9.4	.	-0.3	-6.4	-15.4	-9.2	.	.	.
N#C/C(=N\Nc1ccccc1Cl)C(=O)c1ccccc1	-0.8	.	-1.5	.	.	.	.	?	1.8%	0.4
Cc1nc2ccccc2c(C)c1C(=O)c1ccc(F)cc1	0.0	-23.1	0.3	-2.6	5.6	3.3	-5.9	-4.3	6.1%	4.5
Cc1ccc(S(=O)(=O)Oc2ccc(/C=C(/NC(=O)c3ccccc3)C(=O)NCC(=O)O)cc2)cc1	0.3	-0.5	-1.0	0.2	-1.9	-2.6	-1.1	2.8	-5.8%	-0.1
O=C(Nc1cccc(Cl)c1Cl)C1CCN(c2ncccn2)CC1	1.1	0.3	-2.8	.	.	.	.	0.0	16.4%	-28.7
CCOC(=O)c1cc(C)n(Cc2ccccc2)c1C	0.4	-0.4	?	.	.	.	.	-2.3	24.3%	8.3
Cc1[nH]n(-c2ccc(Cl)cc2)c(=O)c1N=Nc1cccnc1	-0.1	-8.1	-4.0	3.2	1.6	7.0	1.2	-7.2	.	-2.5
Cc1ccc(S(=O)(=O)N2CCCN(C)c3nc4ccccc4nc32)cc1	0.1	-9.9	.	1.3	-2.2	-32.6	37.0	.	9.9%	.
Cc1ccccc1NC(=S)N(CCc1c(C)[nH]c2ccc(F)cc12)Cc1ccncc1	-0.4	10.1	-2.8	10.0	-23.1	-33.8	-4.5	9.1	7.7%	30.4
COc1ccccc1N(CC(=O)NCCc1ccccc1)C(=O)CCC(=O)Nc1cc(C)ccn1	0.7	-6.4	2.0	0.5	-7.7	-9.2	-0.7	5.0	.	4.0
CC(C)(C)[C@@H]1CCC(=O)N(CC[C@H](Sc2ccc(Br)cc2)c2ccccc2)CC1	-1.8	8.3	.	-0.5	9.0	1.0	-1.1	.	.	.
C#CCOCCOCCOCCNc1nc(N2CCN(C(=O)[C@H](CCC(=O)O)n3cc(C(N)CO)nn3)CC2)nc(N2CCN(C(=O)[C@H](Cc3cc4ccccc4[nH]3)n3cc(C(N)[C@H](C)CC)nn3)CC2)n1 (stereo partly specified)	0.3	14.2	-0.1	.	.	.	.	4.2	.	-11.0
CCOC(=O)N1CCN(C(=O)c2ccc3c(c2)N(Cc2cc(C)ccc2C)C(=O)c2ccccc2S3=O)CC1 (stereo unspecified)	-0.3	9.6	6.2	6.7	-20.3*	-9.2*	4.7*	12.5	.	-4.3
CCCCC(=O)Nc1cccc(NC(=S)NC(C)=O)c1	0.0	-0.1	-0.3	.	.	.	.	-4.5	20.7%	-7.1
CC(=O)c1cc2ccccc2oc1=O	-0.8	-2.1	.	-1.3	9.2	10.0	-2.0	.	-12.1%	.

These rows are one share of the data; the hit share may differ from the screen's.
